# High-throughput results from PubChem BioAssay.
# KCNQ2 enhance: enhances the rat KCNQ2 potassium channel | O88943 | CHO-K1 KCNQ2, FluxOR thallium flux fluorescence; stronger effect = higher value | B-score at 10 µM | 310,000 compounds, 0.54% hits | AID 2239;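 active = fluorescence ratio B-score at least 3 SD of library B-scores, with initial fluorescence B-score within 3 SD, cut at about 5.3 in these data; same plate scores as AID 2156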;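 note: B-score of peak minus minimum over baseline fluorescence ratio after K+ and Tl+ stimulus; positive B-score means potentiation of KCNQ2 with more thallium influx and brighter signal; only the inactives scoring about 0 or higher are listed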
# Target sequence (O88943 whole entry, looked up): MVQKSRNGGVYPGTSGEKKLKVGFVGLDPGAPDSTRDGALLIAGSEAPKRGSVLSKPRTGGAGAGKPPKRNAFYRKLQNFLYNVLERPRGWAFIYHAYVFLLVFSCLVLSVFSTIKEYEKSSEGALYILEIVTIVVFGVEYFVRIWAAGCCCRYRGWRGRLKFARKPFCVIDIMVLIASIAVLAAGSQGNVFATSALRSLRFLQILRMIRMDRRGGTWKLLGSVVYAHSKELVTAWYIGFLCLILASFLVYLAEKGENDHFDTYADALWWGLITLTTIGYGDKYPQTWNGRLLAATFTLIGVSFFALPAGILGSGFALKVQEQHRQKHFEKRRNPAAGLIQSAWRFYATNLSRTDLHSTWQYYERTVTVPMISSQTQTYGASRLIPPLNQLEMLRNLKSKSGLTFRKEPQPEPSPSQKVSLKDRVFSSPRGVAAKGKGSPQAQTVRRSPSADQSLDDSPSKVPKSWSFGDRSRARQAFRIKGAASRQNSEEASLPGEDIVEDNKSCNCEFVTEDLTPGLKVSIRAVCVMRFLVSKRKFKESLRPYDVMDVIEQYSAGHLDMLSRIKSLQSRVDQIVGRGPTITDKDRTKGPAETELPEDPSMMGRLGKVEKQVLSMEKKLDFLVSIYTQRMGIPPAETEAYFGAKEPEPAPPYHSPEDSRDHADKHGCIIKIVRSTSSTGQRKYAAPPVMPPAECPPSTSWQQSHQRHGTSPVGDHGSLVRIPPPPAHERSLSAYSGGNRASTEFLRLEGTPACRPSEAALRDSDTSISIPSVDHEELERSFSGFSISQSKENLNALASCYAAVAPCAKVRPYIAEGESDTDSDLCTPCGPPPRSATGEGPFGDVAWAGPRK
# KCNQ2 enhance baseline: further read-out of KCNQ2 enhance, marked with its call; B-score; compound at 10 µM; measured here: initial fluorescence intensity artifact check;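 brightness before thallium and not channel activity; 0 = typical well and far values either way flag optical interference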
# * = called active by the depositor. These rows are one share of the data. The share of hits here may be higher or lower than overall.
SMILES,KCNQ2 enhance,KCNQ2 enhance baseline
Nc1nnc(-c2cccc(F)c2)s1,0.58,-1.3
c1ccc(C2CC(c3ccccc3)n3ncnc3N2)cc1 (stereo not given),1.6,0.46
O=C(O)CCn1cc(/C=C2\NC(=S)N(c3ccccc3)C2=O)c(-c2ccc(Br)cc2)n1,1.2,-0.3
Cc1c(NC(=S)NC(=O)CSc2ccc(Cl)cc2)cccc1C(=O)O,0.01,0.27
N/C(=N\S(=O)(=O)c1cc(C(F)(F)F)cc(C(F)(F)F)c1)c1ccncc1,1.6,-0.03
CNC(=O)C(C)N1c2cccc3cccc(c23)S1(=O)=O (stereo not given),0.29,-1.2
c1ccc2c(c1)C(=Nn1cnnc1)c1ccccc1-2,1.7,-0.77
Cc1cccc(C(=O)n2c(=S)nc3ccccn32)c1,1.3,-0.53
COc1ccc(N2CC(NC(=O)c3cccc4ccccc34)CC2=O)cc1OC (stereo not given),0.88,-1.5
Cc1ccc(CNC(=O)c2cc(S(=O)(=O)N3CCCC3)cn2C)cc1,1.5,-0.05
CCCCN1C(=O)C(=O)N(CC(=O)Nc2cc(S(=O)(=O)N(C)C)ccc2C)C1=O,0.91,0.8
CC(=O)NC1C(=O)SC1(C)C (stereo not given),0.69,0.67
CCNC(=O)C(=O)Nc1cc2c3c(c1)CCN3C(=O)CC2,0.84,0.8
O=c1c2ccccc2ncn1CCOCCOc1ccc([N+](=O)[O-])cc1,0.43,0.61
COc1ccc(-c2cn3cccnc3n2)cc1,1.2,1.8
O=[N+]([O-])c1[nH]cnc1/C=C/c1ccccc1,0.33,-0.85
CCNc1nc(NCc2ccccc2)nc(Oc2ccc(=O)[nH]n2)n1,1.6,0.55
CN(C)c1ccc(NC(=O)CN2CCC(O)(c3ccccc3)CC2)cc1,0.09,-0.45
Cc1cccnc1NC(=O)CCNC(=O)c1ccc(Br)cc1,2.4,0.89
Cc1ccc(C(=O)NCCc2nnc(SCC(=O)Nc3cccc(C(=O)O)c3)n2C)cc1,0.47,0.58
Cc1ccc(S(=O)(=O)N(C)Cc2nc(-c3ccc(Br)cc3)no2)cc1,0.69,-0.27
C/C(CC1(O)C(=O)Nc2ccccc21)=N\O (stereo not given),0.17,2.6
CCN(CC)CC(=O)Nc1ccc(-c2nc3cc(NC(=O)CN(CC)CC)ccc3o2)cc1,1.3,-0.33
CCOC(=O)Cc1nnc(NC(=O)C23CC4CC(CC(C4)C2)C3)s1,0.24,-0.41
CC(=O)Cc1nsc(NC(=O)c2ccc(-c3ccc(F)cc3)o2)n1,1,-1.5

# Grouped by structure, the entries above with a nitro group on carbon.
SMILES,KCNQ2 enhance,KCNQ2 enhance baseline
O=c1c2ccccc2ncn1CCOCCOc1ccc([N+](=O)[O-])cc1,0.43,0.61
O=[N+]([O-])c1[nH]cnc1/C=C/c1ccccc1,0.33,-0.85

# (cont.)
SMILES,KCNQ2 enhance,KCNQ2 enhance baseline
O=C(COc1ccc(Cl)cc1)Nc1cccc(-c2ccc3nncn3n2)c1,0.54,1.1
CCOC(=O)c1c(C)[nH]c(C(=O)CC(=O)OC)c1C,0.96,-0.19
Cc1oc(-c2ccc(Cl)cc2)nc1CS(=O)CC(=O)NC(C)c1ccccc1 (stereo not given),0.06,0.2
CCCCNC(=O)O[C@@H]1C[C@H]2CCCC(=O)N3CC[C@@H](C1)[C@@H]23,0.31,-0.09
CC(=O)CC1=NC(C)(C)Cc2ccccc21,0.13,-2.6
C=CCNC(=O)CSc1nnc(-c2ccc(S(=O)(=O)N3CCCC3)cc2)n1C,1.6,0.34
O=C(COc1ccccc1[N+](=O)[O-])N(C1CCCCC1)C1CCS(=O)(=O)C1 (stereo not given),0.19,0.67
Cc1cc(=O)[nH]c(N/N=C/c2cn(CCC#N)nc2-c2ccccc2)n1,1.8,-1.1
S=C1NC2(CCCCCC2)N=C1c1ccccc1,1.6,0.28
O=C(Nc1nccs1)c1ccc([N+](=O)[O-])cc1,0.35,-0.74
O=C(c1cc2ncc(CCCl)cn2n1)N1CCCCCC1,0.07,-1.6
O=C(Nc1cccc(NC(=O)c2ccco2)c1)c1ccc([N+](=O)[O-])cc1,2.6,0.33
CNC(=S)N1CCN(c2nc(-c3ccc(F)cc3)cs2)CC1,0.04,0.95
O=S(=O)(c1ccc(SCCO)nc1)N1CCCC1,0.02,-0.11
Cc1nnc(NC(=O)CCCN2C(=O)c3ccccc3C2=O)s1,0.36,0.64
CS(=O)(=O)N(CC(=O)NCc1ccco1)c1ccc2c(c1)OCO2,1.8,-0.84
O=C(Cn1nnc(-c2ccc3c(c2)OCO3)n1)NCc1ccccc1,0.11,0.73
COC(=O)c1ccccc1CON1C(=O)C(C)(C)N(OCc2ccccc2C(=O)OC)C(=O)C1(C)C,0.28,0.9
CCCN1CCC(=O)N([C@H](CSc2ccc(Br)cc2)c2ccccc2)CC1,0.42,0.55
CCNC(=O)CC1C(=O)N(c2ccccc2)C(=O)N1CCC(C)C (stereo not given),1.9,0.16
CCCn1c(C)cc(C(=O)COc2ccc(S(=O)(=O)N(CC)CC)cc2[N+](=O)[O-])c1C,0.1,-0.24
CCOc1ccc(S(=O)(=O)n2nc(C)cc2C)c2ccccc12,0.25,-1.2
CCOC(=O)c1[nH]c(C=O)c(C(=O)OCC)c1C,3.1,0.47
O=[N+]([O-])c1ccc(N2CCN(c3cccc(Cl)c3)CC2)cn1,2.4,-0.66
C=CCn1c(CNc2ccc(C)cc2)nnc1SCC(=O)N/N=C/c1ccc(O)cc1O,0.37,-0.06

# Part of the list above, with values ahead of the structure.
KCNQ2 enhance | KCNQ2 enhance baseline | structure
1.8 | -1.1 | Cc1cc(=O)[nH]c(N/N=C/c2cn(CCC#N)nc2-c2ccccc2)n1
1.6 | 0.28 | S=C1NC2(CCCCCC2)N=C1c1ccccc1

# Remaining list, next part:
SMILES,KCNQ2 enhance,KCNQ2 enhance baseline
O=C(NC(=S)Nc1ccccn1)c1ccc([N+](=O)[O-])cc1,1.1,-0.35
CCN(CC)C(=S)Nc1ccc(Cl)c(Cl)c1,1.1,-1.8
O=c1cc(CSc2ccc(Cl)cc2)nc(N2CCCCC2)[nH]1,0.14,1.3
CCN1CCN(CCNC(=O)CCc2c(C)c3c(C)nn(-c4ccccc4)c3n(C)c2=O)CC1,0.86,-0.66
CCOC(=O)[C@@H]1[C@H]2COc3cc(OC)ccc3[C@H]2N2C(=O)N(c3ccc(C)cc3)C(=O)[C@@]12C,0.03,-0.73
COC(=O)C1SCC2C(=O)N(Cc3ccccc3)CC(=O)N21 (stereo not given),1,-0.93
CCOc1ccc2ncc(S(=O)(=O)c3ccccc3)c(N3CCN(c4ccc(OC)cc4)CC3)c2c1,0.04,0.24
NC(=O)CCN1CCCCC1,0.24,2.9
CC(C)NC(=O)C1CCN(C2CCN(C(=O)/C=C/c3cccs3)CC2)CC1,1.6,-1.4
Cc1nc2sc3c(c2c(=O)[nH]1)CCCC3,0.75,-0.03
O=Cc1ccc(O)c2ncccc12,7.2*,-2.4*
CC1CCCC(N2CCN(C(=O)c3cccc(F)c3)CC2)C1 (stereo not given),0.01,-0.22
O=C(Nc1ccccc1)n1cc(-c2ccccn2)c(N2CCOCC2)n1,0.16,0.59
O=C(c1ccccc1NS(=O)(=O)c1cccc2cccnc12)N1CCOCC1,0.24,-1.1
Cc1cc(NC(=O)CSc2nnc(Nc3ccccc3)s2)no1,1.2,-0.32
O=C(/C=C/c1ccco1)NC(=S)Nc1ccccc1,0.14,0.77
O=Cc1cn(CCC(=O)O)nc1-c1cccc(Br)c1,0.93,0.62
Cc1ccc(Nc2nnc(SCC3CCCCO3)s2)cc1 (stereo not given),1.2,0.04
COc1ccc(-c2cc(C(=O)N/N=C/c3ccc(OC)c(COCC(F)(F)C(F)F)c3)c3ccccc3n2)c(OC)c1,0.76,-0.68
COc1cc(SC#N)ccc1N=Cc1c(C)[nH]n(-c2ccc(C)cc2)c1=O,2,1.8
CCOC(=O)CCC(=O)NCc1ccc2c(c1)cc(C)n2C,2.6,-1.5
CN(C(=O)c1ccc2c(c1)OCO2)C1(C)CCS(=O)(=O)C1 (stereo not given),0.26,-0.94
Cc1ccc(-n2nc(C(=O)O)nc2-c2ccccc2)cc1,2.8,-0.31
Cc1cc(C)cc(N(C(=O)c2ccco2)C(C(=O)NC2CCCC2)c2ccncc2)c1 (stereo not given),1.4,1.4
CC1(c2ccccc2)CC(C)(C)N2C(=O)C3(C(C#N)=C(N)Oc4cc(O)ccc43)c3cccc1c32 (stereo not given),2.5,0.11
SMILES,KCNQ2 enhance,KCNQ2 enhance baseline
Cc1cccc(C(=O)OCC(=O)c2cccc(Br)c2)c1O,1,-1.1
COc1c(C=O)cc2c3c1CCCN3CCC2,0.77,0.04
COc1ccccc1NC(=O)C(=O)NCCC1CCCCN1S(=O)(=O)c1cccs1 (stereo not given),0.03,-1.1
CC1CC1C(=O)OCC(=O)NC(=O)c1ccccc1 (stereo not given),0.17,-2.1
CN1C[C@@H]2C(c3ccccc3)C3(c4cccnc4)CC2(C3)[C@H]1c1ccccc1 (stereo not given in full),0.05,1.6
Cc1ccccc1NC(=O)Cn1c(=O)sc2ccccc21,0.73,0.85
Cc1cc(C)nc(N2C(=O)CC(C(C)c3ccccc3)C2=O)n1 (stereo not given),1.6,-2
COc1ccc(N(C(=O)CNS(=O)(=O)c2ccccc2)C(C(=O)NCc2ccco2)C(C)C)cc1 (stereo not given),1.2,0
O=C(/C=C/Nc1ccc(Br)cc1F)c1ccco1,0.48,0.47
Cc1cccc(C)c1NC(=O)c1ccc(-n2cnnn2)cc1,13*,-0.52*
CCS(=O)(=O)N1CCC(c2nc(-c3ccc(C(F)(F)F)cc3)no2)CC1,0.06,0.67
COc1ccc(C(CC(=O)O)c2ccc3c(c2)OCO3)cc1 (stereo not given),0.18,0.81
C=CCn1c(CSc2nc3ccccc3s2)nnc1SCC(=O)NCc1cccnc1,0.02,0.03
O=C(N/N=C\c1cc(Br)c(Br)o1)c1cncc(Br)c1,0.07,-0.83
O=C(c1c(F)c(F)c(F)c(F)c1F)N1CCc2ccccc21,1.7,0.22
CC1CCCCN1C(=O)C1CC(c2ccc(F)cc2)=NO1 (stereo not given),2.4,-1.1
COc1ccc(-c2ccc(/C=C3/C(=N)N4C=CSC4=NC3=O)o2)c([N+](=O)[O-])c1,1.5,0
Cc1c(C(N)=O)sc2nc(-c3ccccc3)cn12,3.6,-0.09
CCN1CCN(c2ccc(S(=O)(=O)N3CCCCC3)cc2NC(=O)c2ccc([N+](=O)[O-])s2)CC1,1.3,-1.1
CC(=O)Nc1ccc(NC(=O)CN(c2ccc(F)cc2)S(=O)(=O)c2ccc3c(c2)OCCO3)cc1,0.01,0.08
CC(C)(C)C(=O)NCC12C=CC(O1)C1C(=O)N(c3ccccc3)C(=O)C12 (stereo not given),0.06,1.5
COc1ccc(C(=O)Nc2ccc(C(=O)N3CCCCC3)cc2)cc1OC,0.08,-0.04
CCCc1[nH]n(-c2nc3ccccc3s2)c(=O)c1C=NCCCN(CC)CC,1.5,0.62
O=C(COc1ccc(Cl)cc1Cl)N(Cc1ccco1)C1CCS(=O)(=O)C1 (stereo not given),0.7,0.71
COc1ccc(-c2nnc(SCC(=O)NCCc3ccc(S(N)(=O)=O)cc3)o2)cc1OC,2.5,-1.2
SMILES,KCNQ2 enhance,KCNQ2 enhance baseline
CC(=O)Nc1ccc(S(=O)(=O)N(C)CC(=O)OCC(=O)N2CCN(C(=O)c3ccco3)CC2)cc1,0.11,0.88
Brc1ccc(CNCCCSc2ncccn2)cc1,0.29,3.3
CC(C)CCOc1ccc(C(=O)C[N+]2(C)CCOCC2)cc1,0.31,1.2
CCOC(=O)c1csc(NC(=O)c2ccc(OC)c(OC)c2)n1,1.4,-1.1
Cc1ccccc1NC(=O)c1cccc(S(=O)(=O)Nc2cccc(C(=O)O)c2)c1,0.25,-0.22
CC1(C)CC(=O)C=C(Nc2cccc(C(F)(F)F)c2)C1,0.53,-1.7
Cc1ccc(/C=N\NC(=O)c2cc(OCC(F)(F)F)ccc2OCC(F)(F)F)cc1,0.06,-2.3
Fc1ccc(CCNC(=S)Nc2ccc(F)cc2)cc1,0.21,-1.5
COC(C(=O)N/N=C(\C)c1ccc(C(C)(C)C)cc1)c1ccccc1 (stereo not given),0.5,1.4
O=C(CN1C(=O)c2ccc([N+](=O)[O-])cc2C1=O)NCc1ccco1,0.41,0.96
O=C(CN1CCN(c2ccccc2F)CC1)NC(=O)NCc1ccccc1,1.3,-0.07
CCOC(=O)Nc1ccc(C)cc1C,1.6,0.32
NC(=O)CSc1nnnn1-c1ccc(OC(F)(F)F)cc1,0.29,0.68
CCN(Cc1ccccc1)C(=O)CN1C(=O)NC2(CC(C)CC(C)(C)C2)C1=O (stereo not given),0.01,-0.83
O=C(NCCc1ccccc1)C(=O)NCc1ccncc1,0.78,0.39
CC(OC(=O)CN1C(=O)C2C3C=CC(C4CC34)C2C1=O)C(=O)c1ccccc1 (stereo not given),0.13,1.3
O=C(O)CCCN(Cc1cccc(Br)c1)S(=O)(=O)c1ccc(Br)cc1,0.05,0.01
CCn1cc(CN2CCCC(CO)(Cc3cccc(Cl)c3)C2)cn1 (stereo not given),0.67,-0.29
CC1(C)Cc2ccccc2-c2nc(NCCCO)n(-c3ccccc3)c(=O)c21,1.3,0.44
OC1(C#CCN2CCCC2)c2ccccc2-c2ccccc21,0.85,2.1

# Given as labelled records: 4 of the compounds above
Cc1cccc(C)c1NC(=O)c1ccc(-n2cnnn2)cc1
  KCNQ2 enhance: 13* | KCNQ2 enhance baseline: -0.52*

COc1ccc(C(=O)Nc2ccc(C(=O)N3CCCCC3)cc2)cc1OC
  KCNQ2 enhance: 0.08 | KCNQ2 enhance baseline: -0.04

CCN1CCN(CCNC(=O)CCc2c(C)c3c(C)nn(-c4ccccc4)c3n(C)c2=O)CC1
  KCNQ2 enhance: 0.86 | KCNQ2 enhance baseline: -0.66

C=CCn1c(CNc2ccc(C)cc2)nnc1SCC(=O)N/N=C/c1ccc(O)cc1O
  KCNQ2 enhance: 0.37 | KCNQ2 enhance baseline: -0.06
